NS1 function inh: qHTS Assay for Inhibitors of Influenza NS1 Protein Function; S. cerevisiae slowed by influenza A NS1, growth recovery by OD600; Potency, µM (doses to about 46.1 µM), for the others: at the top dose activity, positive = more growth; 270,000 compounds, 0.4% hits; AID 2326, 2010; active means well fitted rising curve with a large enough effect; inconclusive means small, poorly fitted or top-dose-only effect; inactive means no such curve, though single readings can be large or run the other way; also: nearly all actives have a fitted effect of over 50% in size
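OD600 was taken as the measure of yeast growth restored by compound in an NS1-expressing S. cerevisiae strain. Cells had been washed out of glucose medium and diluted 1:100 into galactose -URA medium, pH 6.0.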
Cruzain Triton: qHTS Assay for Promiscuous and Specific Inhibitors of Cruzain (with detergent); Potency, µM, for the others: max response, negative = inhibition, hits mostly inhibitors; AID 1478, 2009; 200,000 compounds, 0.43% hits; purified cruzain, Z-FR-AMC fluorescence, 0.01% Triton;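 also: plate controls were neutral wells for no effect and buffer without enzyme for full effect; nearly all actives have a fitted effect of over 40% in size; top concentration of the series not given in the record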
Target sequence (P25779 123-467 limits assumed): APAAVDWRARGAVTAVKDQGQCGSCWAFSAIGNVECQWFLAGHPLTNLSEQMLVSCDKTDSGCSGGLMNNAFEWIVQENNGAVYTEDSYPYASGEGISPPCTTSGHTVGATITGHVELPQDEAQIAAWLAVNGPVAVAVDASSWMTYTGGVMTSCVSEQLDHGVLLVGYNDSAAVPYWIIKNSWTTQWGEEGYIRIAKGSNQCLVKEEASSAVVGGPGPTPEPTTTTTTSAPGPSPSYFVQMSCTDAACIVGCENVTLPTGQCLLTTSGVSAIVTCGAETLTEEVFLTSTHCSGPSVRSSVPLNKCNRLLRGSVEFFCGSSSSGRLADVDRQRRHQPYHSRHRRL
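Sodium acetate buffer (100 mM, pH 5.5) containing 5 mM DTT and 0.01% Triton X-100 hosted 1.5 nM cruzain and test compound for 15 min at room temperature. Cleavage of 2 uM Z-FR-AMC was then tracked by fluorescence.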
StopGo reporter: High Throughput Screening for Foot and Mouth Disease Virus Antivirals; human cells with a luciferase reporter of 2A StopGo recoding; control for the full effect not named in the record; Potency, µM (highest dose often 57.9 µM), for the others: at the top dose signal change, negative = less light; 410,000 compounds, 1.2% hits; active = well fitted falling curve with a large enough effect; inconclusive = small, poorly fitted or top-dose-only effect; inactive = no such curve, though single readings can be large or run the other way; tested in HEK293T cells; also: % is scaled to controls: 0 for no effect and ±100 for the full control effect; nearly all actives have a fitted effect of over 45% in size; luciferase light after 4 h
Cruzain noTriton: qHTS Assay for Promiscuous and Specific Inhibitors of Cruzain (without detergent). 200,000 compounds, 2.3% hits. purified cruzain, Z-FR-AMC fluorescence, no detergent. Potency, µM, for the others: max response, negative = inhibition, most hits filed as inhibitors. Cruzipain (Trypanosoma cruzi), P25779. AID 1476, 2009;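 also: plate controls were enzyme without inhibitor for no effect and buffer without enzyme for full effect; nearly all actives have a fitted effect of over 40% in size; top concentration of the series not given in the record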
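Purified cruzain at 1.5 nM, pre-incubated 15 min with compound at room temperature in 100 mM sodium acetate pH 5.5, 5 mM DTT, 0.00005% Triton X-100. Reaction started with 2 uM Z-FR-AMC; AMC fluorescence increase over 60 s gives rate.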
Marburg entry inh: qHTS for inhibitors of binding or entry into cells for Marburg Virus. AID 540276, 2011. Potency, µM (top dose mostly 37.8 µM), for inactives: at the highest dose activity change, negative = inhibition, most hits filed as inhibitors. Marburg virus pseudotyped entry inhibition, cell reporter; control for the full effect not named in the record; about a third of the inactives were read at about 46 µM. 300,000 compounds, 1.8% hits; active = well fitted inhibition curve with a large enough effect; inconclusive = small, poorly fitted or top-dose-only effect, or effect the other way; inactive = flat fitted curve, though single readings scatter; tested in HEK293 cells; about a fifth of its hits are not listed in these tables; also: % is scaled to controls: 0 for no effect and ±100 for the full control effect; luciferase read-out
Lassa entry inh: qHTS for Inhibitors of binding or entry into cells for Lassa Virus. Lassa virus pseudotype entry inhibition, cell reporter; control for the full effect not named in the record. Potency, µM (highest dose often 37.9 µM), for the others: top-dose activity change, negative = inhibition, most hits filed as inhibitors. 300,000 compounds, 1.2% hits. AID 540256, 2011; active means well fitted inhibition curve with a large enough effect; inconclusive means small, poorly fitted or top-dose-only effect, or effect the other way; inactive means flat fitted curve, though single readings scatter; tested in HEK293 cells; also: % is scaled to controls: 0 for no effect and ±100 for the full control effect; nearly all actives have a fitted effect of over 50% in size; luciferase read-out
RE007 growth inh: qHTS Assay for Inhibitors of the HIV-1 protein Vpr. S. pombe RE007 Vpr strain, BacTiter-Glo ATP luminescence, 24 h; control for the full effect not named in the record. Potency, µM (titrated, usually from 92.2 µM), inactives show at the top dose activity change, negative = less growth. 360,000 compounds, 0.21% hits; active = well fitted falling curve with a large enough effect; inconclusive = small, poorly fitted or top-dose-only effect; inactive = no such curve, though single readings can be large or run the other way;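 also: % is scaled to controls: 0 for no effect and ±100 for the full control effect; nearly all actives have a fitted effect of over 50% in size; the assay follows cell death caused by Vpr and the record does not say whether a fall means rescue or toxicity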
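Fission yeast RE007 carrying one integrated HIV-1 vpr copy, seeded at OD 0.01 in PMG+AL medium with 23 nL pinned compound. Grown 24 h at 30 degrees; viability read by BacTiter-Glo luminescence after 5 min.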
SARS PLP yeast: qHTS of Yeast-based Assay for SARS-CoV PLP; S. cerevisiae expressing SARS-CoV PLpro, growth rescue; control for the full effect not named in the record; Potency, µM (top dose mostly 32.9 µM), for inactives: at the highest dose activity, positive = growth rescue; 330,000 compounds, 0.19% hits; active means well fitted rising curve with a large enough effect; inconclusive means small, poorly fitted or top-dose-only effect; inactive means no such curve, though single readings can be large or run the other way; also: 0% is about no effect; nearly all actives have a fitted effect of over 55% in size; growth read by luminescence after 48 h
Starred values were filed as active, the others as inactive; u = inconclusive; x = not tested or not shown; & = joins results of further samples; [ ] = dose if it differs, or a comment. Unless noted, calls follow the shape of the dose curve; as a rule, active = well fitted curve in the direction sought with a large enough effect; inconclusive = small, poorly fitted or top-dose-only effect, or another doubt; inactive = no such curve, though single readings can be large; an effect the other way counts as inactive or inconclusive. Potency is read from the fitted curve at half-maximal effect.

Second line of a record – Cruzain noTriton	Cruzain Triton	RE007 growth inh	NS1 function inh	SARS PLP yeast	StopGo reporter	Lassa entry inh	Marburg entry inh
COC(=O)NCC(c1cccnc1)N1CCN(c2ccccc2F)CC1 (stereo not drawn)
→ -2%	9.6%	-7%	-9%	14%	-19%	x	x
CC(=O)OC1C2(CC3N4C(=O)C5(CO)SSC4(CC31O)C(=O)N5C)OC(C)C(C)(C)C2=O (stereo not drawn)
→ x	x	-12%	x	x	2µM*	1.6µM*	1.4µM*
Cc1nc(CNS(=O)(=O)c2cc(F)ccc2F)cs1
→ 25%	0.7%	2%	5%	-6%	x	17%	1%
CCOC(=O)CC(=O)CSc1nnc2c(n1)[nH]c1ccccc12
→ u	-3.3%	14%	7%	-8%	39%[activator]	-18%	u
Cc1cccc(NC(=O)CSc2nc3ccccc3nc2N2CCC(C)CC2)c1
→ 12%	-3.3%	x	x	x	-13%	u	1.1µM*
COc1cc(OC)cc(C(=O)NNc2nc3cc4c(cc3s2)OCO4)c1
→ -14%	-6.9%	4%	-11%	3%	-24%	5%	22%
COc1ccc(S(=O)(=O)NCc2ccc3c(c2)CCN3C(=O)c2ccc(C)cc2)cc1Cl
→ u	-0.2%	x	x	x	-15%	u	x
Cn1c(SCC(=O)c2c(N)n(C)c(=O)n(C)c2=O)nnc1-c1ccc(F)cc1
→ 4%	0.4%	-10%	12%	1%	-17%	7%	0%
Cc1nc2[nH]c(=O)c3c(n2n1)NC1=C(C(=O)CC(C)(C)C1)C3c1ccccc1 (stereo not drawn)
→ -7%	-8.3%	18%	3%	-1%	-7%	4%	29%
O=S(=O)(c1ccc(SCCOc2ccc(Br)cc2)nc1)N1CCCC1
→ x	x	3%	x	-2%	-19%	-21%	u
Cc1ccc(Nc2nc3c(c(=O)[nH]c(=O)n3C)n2Cc2ccc(F)cc2)cc1
→ -1%	1.2%	0%	-1%	8%	21%	3%	9%[46.1 µM]
C=CCN1C(=O)/C(=C2/C(=O)N(CC(=O)O)c3ccccc32)S/C1=N/c1nccs1
→ u	-5.6%	x	10%	3%	x	x	-3%
COc1ccc(C(=O)Nc2ccc(N3CCOCC3)cc2)cc1S(=O)(=O)NC1CCCC1
→ x	x	-15%	-9%	-2%	32%[activator]	1%	-27%
O=C(Oc1c(Cl)cc(Cl)c2ccccc12)N1CCCCC1
→ -5%	-5.0%	11%	11%	-21%	-15%	u	u
CC(C)Cc1nnc(NC(=O)c2cc(-c3ccncc3)nc3ccccc23)s1
→ x	x	0%	5%	-1%	-24%	-8%	-1%[46.1 µM]
Cc1ccc(CC(=O)Nc2nncs2)cc1
→ 4%	2.9%	10%	-6%	-9%	23%	8%	5%
O=C(CSCc1cnn(-c2ccccc2)c1-n1cccc1)NCC1CCCO1 (stereo not drawn)
→ 17%	1.7%	13%	-5%	-6%	-13%	u	6%
CC[C@H]1C(c2ccc(F)cc2)=NN(c2ccccc2)[C@@H]1CO
→ -3%	-6.6%	-3%	x	-11%	-22%	x	x
O=C(CSc1nnc(CNC(=O)c2c(F)cccc2Cl)o1)NCc1ccc2c(c1)OCO2
→ -11%	4.5%	-5%	u	x	17%	-28%	-1%&-6%
CNS(=O)(=O)c1ccc(NCC2COc3ccccc3O2)c([N+](=O)[O-])c1 (stereo not drawn)
→ -10%	-8.1%	8%	-10%	2%	8%	-1%	12%
Cc1ccc(S(=O)(=O)N[C@@H](Cc2ccccc2)C(=O)N2CCC(C(=O)N[C@H](C(=O)O)C(C)O)CC2)cc1 (stereo partly drawn)
→ x	x	11%	2%	0%	13%	x	0%
C/C(=N\Nc1nc2ccccc2[nH]1)c1ccc(C)o1
→ -16%	-18%	-8%	-16%	-13%	-11%	12%	u
COc1ccc(OC)c(S(=O)(=O)n2nc(C)cc2C)c1
→ -8%	6.1%	15%	3%	2%	18%	u	u
CC1CCN(CC[C@H]2CCCN2S(=O)(=O)c2cccc(O)c2)CC1
→ -2%&5%	4.4%&-12%	-9%	-3%	x	u	4%	u
COc1cccc(CN(C)C(=O)[C@@H](NC(=O)c2ccc(C)cc2)C(C)C)c1
→ x	x	-12%	0%	0%	2%	u	u
O=C(O)c1cn(Cc2ccccc2)c2ccccc2c1=O
→ -10%	-3.8%	-2%	0%	16%	5%	u	1%
CN/C=C(/Cl)P(=O)(OC(C)C)OC(C)C
→ x	x	-12%	x	x	0%	5%	-4%[46.1 µM]
COc1ccc(C)cc1NC(=O)C1CCN(S(=O)(=O)c2ccc3c(c2)CCCN3C(C)=O)CC1
→ u	-2.6%	x	x	x	-20%	8%[46.1 µM]	x
CCc1nnc(NC(=O)CCC(=O)NCC2CCCO2)s1 (stereo not drawn)
→ -1%	1.6%	-15%	6%	12%	1%	10%	8%
O=C(NCc1ccccc1F)c1cccs1
→ -4%	0.7%	-16%	-9%	0%	16%	0%	11%
O=C(Cc1ccccc1F)Nc1cc(Cl)ccc1N1CCCC1
→ x	x	-14%	3%	-1%	19%	-1%[46.1 µM]	6%[46.1 µM]
CN(C)CCN=Cc1c(O)n(-c2cccc3ccccc23)c(=O)[nH]c1=O
→ -10%	7.1%	-13%	u	5%	-10%	-5%	u
O=C1c2[nH]nc(-c3ccccc3O)c2C(c2cccc(Cl)c2)N1CC1CCCO1 (stereo not drawn)
→ 5%	-6.5%	51%	x	-10%	-18%	u	u
COc1ccccc1N1CCN(Cc2cc(Br)c(O)c3ncccc23)CC1
→ 6%	1.9%	-10%	-94%	u	-25%	x	5%
COc1ccc(C(=O)Nc2ccnn2C2CCN(CC3CC=CCC3)CC2)cc1 (stereo not drawn)
→ x	x	0%	5%	0%	-13%	0%	20%
COc1ccc(C(=O)n2c(-c3ccco3)nc3ccccc32)cc1
→ -1%	-10%	-20%	-163%	-16%	-19%	-26%	-22%
O=C(O)CC(SCc1ccc(C(=O)O)o1)C(=O)O (stereo not drawn)
→ -18%	1.8%	-4%	5%	4%	-14%	0%	0%
CCOc1cc(CN2CCN(c3ncccn3)CC2)ccc1OC
→ x	x	-1%	u	1%	u	0%	-1%
Cc1cccc(C(=O)OCC(=O)c2ccc3c(c2)OCO3)c1O
→ x	x	-29%	-3%	-7%	-4%	-21%	-13%
CCn1c(NC(=O)c2ccccc2)nc2ccccc21
→ x	x	-6%	-57%	-1%	22%	-1%	u
CCOC(=O)C1=C(C)NC(SC(C)=O)=NC1c1ccc(OC(C)=O)c(OC)c1 (stereo not drawn)
→ -3%	-4.1%	-2%	10%	x	u	14%	10%&10%&10%
N#Cc1ccccc1NC(=S)NC(=O)c1cccnc1
→ x	x	3%	7%	1%	5%	20%	-4%
CN(C)C(=O)Cn1c(SCC(=O)NC2CCCCC2)nc2ccccc21
→ 9%	-0.4%	1%	-1%	24%	6%	-8%	18%
CCN1C(=O)/C(=C2/Sc3ccccc3N2CC)SC1=S
→ x	x	-14%	-2%	-4%	-2%	x	x
COc1cccc(NC(=O)CSc2ccccn2)c1
→ -10%	-2.4%	11%	-9%	3%	63%[activator]	30%	-3%
COC1(OC)N=C(N)C2(C#N)C(c3ccc(C)cc3)C12C#N (stereo not drawn)
→ 10%	1.1%	5%	13%	2%	-7%	u	-31%
CCN1CCN(C(c2cc(OC)c(OC)c(OC)c2)c2nnnn2C(C)C)CC1 (stereo not drawn)
→ -8%	1.5%	-6%	-1%	1%	-3%	-12%	15%
CC(C)c1cc(C(=O)N2CCCC(Nc3ccc(F)cc3)C2)n[nH]1 (stereo not drawn)
→ x	x	-29%	13%	-3%	-12%	8%	-10%
Cc1cc(C)c2nc3s/c(=C/c4ccccc4)c(=O)n3c2c1
→ -18%	2.9%	x	6%	7%	x	x	1%
O=c1[nH]cnc2c1C1(CCCC1)Cc1ccccc1-2
→ 0%	-8.1%	11%	-14%	-9%	-26%	1%	0%
COc1ccc(S(=O)(=O)c2c(O)c3ccc(C(=O)NCc4ccccc4)cc3[nH]c2=O)cc1
→ 4%	-2.2%	x	x	x	-7%	10%[46.1 µM]	x
CCOc1ccccc1N1CCN(CC(=O)NC(=O)NCc2ccco2)CC1
→ x	x	-10%	x	-1%	-12%	3%	5%[46.1 µM]
CCOc1ccc(NC(=O)c2ccc(N3CC4CC(C3)c3cccc(=O)n3C4)c(N)c2)cc1 (stereo not drawn)
→ x	x	-5%	12%	-3%	-3%	x	x

Whole records, quoted from the list.
CCOc1ccc(NC(=O)c2ccc(N3CC4CC(C3)c3cccc(=O)n3C4)c(N)c2)cc1 (stereo not drawn) is listed with Cruzain noTriton = x; Cruzain Triton = x; RE007 growth inh = -5%; NS1 function inh = 12%; SARS PLP yeast = -3%; StopGo reporter = -3%; Lassa entry inh = x; Marburg entry inh = x
CCOc1ccccc1N1CCN(CC(=O)NC(=O)NCc2ccco2)CC1 is listed with Cruzain noTriton = x; Cruzain Triton = x; RE007 growth inh = -10%; NS1 function inh = x; SARS PLP yeast = -1%; StopGo reporter = -12%; Lassa entry inh = 3%; Marburg entry inh = 5%[46.1 µM]
COc1ccc(S(=O)(=O)c2c(O)c3ccc(C(=O)NCc4ccccc4)cc3[nH]c2=O)cc1 is listed with Cruzain noTriton = 4%; Cruzain Triton = -2.2%; RE007 growth inh = x; NS1 function inh = x; SARS PLP yeast = x; StopGo reporter = -7%; Lassa entry inh = 10%[46.1 µM]; Marburg entry inh = x

Single values from the results shown:
CC(C)c1cc(C(=O)N2CCCC(Nc3ccc(F)cc3)C2)n[nH]1 (stereo not drawn) – RE007 growth inh: -29%
COC1(OC)N=C(N)C2(C#N)C(c3ccc(C)cc3)C12C#N (stereo not drawn) – Marburg entry inh: -31%

Compound activity from PubChem BioAssay.
